Vaccinia mCherry: vaccinia inhibition (mCherry reporter) | Vaccinia virus mCherry reporter infection, fluorescence; about a quarter of the inactives have no number | Potency, µM (highest dose often 36.5 µM), for the others: at the highest dose activity change, negative = inhibition, most hits filed as inhibitors | 310,000 tested, 0.63% active | AID 720579; active = well fitted inhibition curve with a large enough effect; inconclusive = small, poorly fitted or top-dose-only effect; inactive = no such curve, though single readings can be large or run the other way; tested in A549 cells; note: nearly all actives have a fitted effect of over 35% in size; inactives centre near -10
Vaccinia Venus: inhibitors of vaccinia virus (Venus reporter). Vaccinia virus Venus reporter expression, fluorescence. Potency, µM (highest dose often 36.5 µM), inactives show at the highest dose activity change, negative = inhibition, hits mostly inhibitors. 330,000 tested, 0.46% active. AID 720580; active means well fitted inhibition curve with a large enough effect; inconclusive means small, poorly fitted or top-dose-only effect; inactive means no such curve, though single readings can be large or run the other way; tested in A549 cells; note: nearly all actives have a fitted effect of over 30% in size; inactives centre near -10
* marks the source's active call; other numbers are inactive results; i = inactive; u = inconclusive; x = no result given; & = joins results of further samples; [ ] = dose if it differs, or a comment. % is set by controls: 0 for no effect and ±100 for the full control effect; potency is the fitted concentration of half-maximal effect.

SMILES	Vaccinia mCherry	Vaccinia Venus
N#CC1=C(N)Oc2n[nH]c(-c3cccs3)c2C1C1C=CCCC1 (stereo not given)	-1%	-16%
COc1ccc(-n2c3c(cc(C(=O)N4CCC(C)CC4)c2=O)C(=O)CC(C)(C)C3)cc1	-2%	-3%
COc1cc(-c2noc(C)c2/C=C/c2ccc(N)cc2)cc(OC)c1OC	u	u
CCCn1c(-c2ccc(S(=O)(=O)N3CCOCC3)cc2)csc1=Nc1ccc(OCC)cc1	-17%	-12%
COc1ccc(C(=O)OCc2nc(N)nc(Nc3ccccc3C)n2)cc1OC	-8%	-19%
CC(C)C(=O)Nc1ccc(C(=O)Nc2nnc(C(C)C)s2)cc1	i	-17%
CC(C)(C)c1ccc(Oc2ccc(N)cc2)cc1	-12%	u
O=C(Nc1nnc(C2CC2)s1)c1cc([N+](=O)[O-])ccc1N1CCCCC1	-1%	-7%
O=C(NCC(c1ccco1)N1CCOCC1)c1ccccc1 (stereo not given)	-33%	-20%
O=S(=O)(c1cccc(Cl)c1)c1nnn2c1nc(NC1CCCC1)c1sccc12	-11%	-18%
CCn1c(=S)sc2c(=O)n(-c3ccccc3)c(=S)[nH]c21	-12%	-8%
O=C(CN1C(=O)NC2(CCCc3ccccc32)C1=O)N1CCc2ccccc2C1 (stereo not given)	x	3%
CCN(CC)c1ccc(C(=O)NN)cc1	4%	0%
CCC(=O)Nc1nc(OC)cc(OC)n1	x	-1%
Cc1ccccc1CCN(CC(=O)NC1CCCCC1)C(=O)c1csnn1	-10%	-5%
COc1cccc(Cn2c(SCc3ccc(C(=O)N4CCC(C)CC4)cc3)nc3ccncc32)c1	u	u
COc1ccc(CCNC(=O)CSc2ccc(NC(C)=O)cc2)cc1OC	-18%	9%
COc1cccc(NC(=S)N2CCN(c3ccc([N+](=O)[O-])cc3)CC2)c1	-6%	8%
CCn1nc(NC(=O)CC(C)C)c2cc3cccc(C)c3nc21	i	-18%
CC1CCN(S(=O)(=O)c2ccc(NC(=O)Cn3nnc(-c4ccccc4F)n3)cc2)CC1	-28%	-19%
CCOC(=O)CCn1nc(-c2ccc(C)cc2)c2ccccc2c1=O	-7%&-13%	-7%&-14%
CC(=O)Nc1ccc(S(=O)(=O)N2CCN(S(=O)(=O)N3CCCCC3)CC2)cc1	i	-12%
Cc1nc2ccccn2c1C(=O)Nc1ccc2c(c1)OCCO2	-8%	0%
CC(C)OCCCNC(=O)c1cccc(NC(=O)c2ccccc2)c1	5%	-3%
CCOC(=O)c1c(C(F)(F)C(F)(F)C(F)(F)C(F)(F)F)n[nH]c1C	-14%	-7%
O=S(=O)(NC1CC2CCC1C2)c1ccc(Br)cc1 (stereo not given)	-14%	-17%
NS(=O)(=O)c1ccc(NC(=O)/C=C/c2ccc(S(=O)(=O)NCc3ccco3)cc2)cc1	i	-12%
Cc1ccc(Oc2ccc(NS(=O)(=O)c3cccc(C(=O)O)c3)cc2)cc1	-8%	-13%
CCCCCN1C(C(=O)c2ccccc2)=C(NC(=O)c2ccc(C)cc2)c2ccccc2S1(=O)=O	-16%	-6%
Cc1ccc(NCc2n[nH]c(=S)n2-c2ccccc2)cc1	-12%	-5%
CCCCNC(=S)Nc1ccc(F)cc1	-16%	-11%
CCN(CC)S(=O)(=O)c1ccc(-n2cnnn2)c(C)c1	-19%	-13%
O=C1CC(Nc2ccc(N3CCOCC3)cc2)C(=O)N1c1ccccc1 (stereo not given)	-15%	1%
O=C(Nc1ccccc1)NC1(C(=O)NCCCN2CCOCC2)CCCCC1	-8%	-1%
COc1ccc(OCc2ccc(-c3nc(C#N)c(N4CCN(C)CC4)o3)o2)cc1	-8%	-1%
CCN(CC)c1ccc(/C=C/c2c(C)cnc3ccccc23)cc1	-6%	7%
Cc1cc(N2CCN(C)CC2)nc2ccc(NC(=O)Nc3ccccc3Cl)cc12	-9%	-11%
CCCC[C@@H](CN[C@H](C)CNC)NCC1CCC(C(C)(C)C)CC1 (stereo not given in full)	u	u
CC1Cc2ccccc2N1C(=O)CSc1ncccc1C(=O)O (stereo not given)	i	-9%
CCc1ccc(NC(=O)CC2C(=O)N(c3cccc(OC)c3)C(=O)N2C2CCCC2)cc1 (stereo not given)	-17%	-23%
CCn1c(SCC(=O)Nc2cccc(NC(C)=O)c2)nnc1-c1ccco1	u	-23%
CCCc1nn2c(=O)cc(CSCC(=O)Nc3ccc(C)cc3)nc2s1	13%[7.34 µM]	0%[7.34 µM]
CCN(CC)CCn1c(NCc2nc3ccccc3n2Cc2ccccc2)nc2ccccc21	-24%	-21%
COc1ccc2nc(NC(=S)NC(=O)c3ccco3)sc2c1	-2%	-22%
Cc1cc2ccccn2c1C(=O)c1cccc(F)c1	i	-14%
CCOC(=O)N1C(=O)C[C@](Sc2ccc(C)cc2)(C(=O)OC)[C@H]1c1ccccc1	i	9%
O=C1NC(=S)N/C1=C\c1cccc([N+](=O)[O-])c1	i	-10%
O=[N+]([O-])c1cccc(S(=O)(=O)NCCc2cccs2)c1	u	-9%
C[C@H]1C[C@H]2[C@@H]3CCC4=CC(=O)C=C[C@]4(C)[C@@]3(Cl)[C@@H](O)C[C@]2(C)[C@@]1(O)C(=O)CO	i	-15%
CN(C(=O)C1CCN(S(=O)(=O)c2cccs2)CC1)c1ccccc1	-4%	-6%

Other entries follow.
SMILES	Vaccinia mCherry	Vaccinia Venus
CCN(CCNC(=O)C1CCN(S(=O)(=O)c2cccc3nsnc23)CC1)c1ccccc1	-21%	-11%
CCOC(=O)CN(c1sc(C)c(C)c1C(=O)OCC)S(=O)(=O)c1ccc(C)cc1	-9%	-11%
O=C(CN1CCOCC1)N1CCN(c2nnc(-c3ccccc3)c3ccccc23)CC1	i	-6%
COc1ccc(-c2nc(SC(C)C(=O)Nc3ccc(NC(C)=O)cc3)n[nH]2)cc1 (stereo not given)	i	-13%
COc1ccc(OC)c(S(=O)(=O)NCc2cn3ccsc3n2)c1	-11%	-22%
O=C(Nc1nccs1)C1CCN(S(=O)(=O)c2c(Cl)cccc2Cl)CC1	x	u
COc1ccc(CN(C2CCCC2)S(=O)(=O)c2ccc(-n3cnnn3)cc2)cc1	u	-29%
O=C(/C=C/c1cccc(F)c1)Nc1nccs1	i	-18%
Cc1ccc(C)c2sc(NC(=O)CN3C(=O)CCC3=O)nc12	-17%	-5%
CC1CC(C)CN(S(=O)(=O)c2ccc(C(=O)Nc3sccc3C(N)=O)cc2)C1 (stereo not given)	-4%	u
NC(=O)C[N+]1(CC#CC(O)(c2ccccc2)c2ccccc2)CCCC1	i	-10%
Cc1ccccc1Cn1c(C)c(CNCc2ccccc2)c(C(=O)O)c1C	5%	10%
Cc1cc(C)cc(NC(=O)CSc2nnc(CNC(=O)c3cccs3)o2)c1	-29%	-11%
COc1ccc(N2CCN(C(CNC(=O)C(=O)NCc3cccnc3)c3ccco3)CC2)cc1 (stereo not given)	-24%	-12%
C[C@H]1CN([C@@H](C)CO)C(=O)CCCn2nncc2CO[C@H]1CN(C)S(=O)(=O)c1cccs1	-17%	4%
COc1ccccc1NS(=O)(=O)c1cccc(C(=O)N/N=C(/C)c2ccc(-n3ccnc3)cc2)c1	-24%	-18%
COc1ccc(-n2cc(CN(C)CCO)c(-c3cccc(F)c3)n2)cc1	-2%	-19%
COc1cc(NC(=O)Nc2ccc(C)cc2)cc([N+](=O)[O-])c1	-30%	-21%
N=C1C(=O)OCC1c1ccccc1NC(=O)c1ccccc1 (stereo not given)	i	-7%
NC(=S)Nc1ccc(Oc2ccc(NC(N)=S)cc2)cc1	i	-19%
Cn1cc(-c2cnc3c(NC=O)cc(-c4cccc(C(F)(F)F)c4)cn23)cn1	10µM*	u
O=C(COc1ccccc1[N+](=O)[O-])N/N=C/C=C/c1ccco1	-2%	-4%
Cc1ccc(NC(=O)N2CCCC2C(=O)Nc2ccc3c(c2)OCO3)cc1 (stereo not given)	u	-5%
O=C/C(=C\Nc1ccc(S(=O)(=O)CCO)cc1)c1nc2cc(Cl)ccc2o1	-2%	5%
C[C@@H]1CN([C@H](C)CO)S(=O)(=O)c2ccc(Br)cc2O[C@@H]1CN(C)C(=O)CN1CCOCC1	i	-9%
Cc1nc(SCC(=O)NCC2CCCO2)c2oc3ccccc3c2n1 (stereo not given)	i	-10%
O=C(Nn1cnnc1)c1cc2cc(Br)ccc2oc1=O	-3%	-12%
Cc1ccc(NS(=O)(=O)c2cc(N)ccc2Cl)c(C)c1	3%	4%
O=C(OC1CCCCC1=O)c1ccc(F)c(S(=O)(=O)N2CCOCC2)c1 (stereo not given)	-4%	-14%
Fc1ccc(N2CCN(Cc3cnc(Cl)s3)CC2)cc1	-19%	-3%
CCn1nnc(NC(=O)c2ccc([N+](=O)[O-])o2)n1	-28%	-21%
Cc1cccc(-c2nc(S(=O)(=O)c3ccc(F)cc3)c(NCCCN3CCOCC3)o2)c1	-3%	-13%
CCCCOc1ccc(C(=O)NN2C(=O)NC3(CCCCC3)C2=O)cc1OC	-24%	-11%
COC(=O)N1CC(C)N(C(=O)OC)CC1C (stereo not given)	x	-5%
CCOC(=O)/C(=N\Nc1ccc(C(C)=O)cc1)c1csc(Nc2ccccc2)n1	-20%	-24%
COc1ccc(C(=O)NCC(=O)OCCCOC(=O)CNC(=O)c2ccc(OC)c(OC)c2)cc1OC	i	-22%
O=C(NCc1ccccc1)C(=O)Nc1c2c(nn1-c1ccccc1)CSC2	u	-26%
C[C@]12c3[nH]c4ccc(Cl)cc4c3CCN1C(=O)[C@@H](CC(=O)NCCCn1ccnc1)C[C@@H]2C(=O)N1CCCCC1	i	-15%
O=C(N[C@@H](Cc1ccccc1)C(=O)NC1CC1)c1ccc(Cl)cc1	-2%	-5%
CCCN(CC(=O)Nc1ccccc1C)C(=O)c1cccc(S(=O)(=O)N2CCc3ccccc3C2)c1	-3%	-27%
Cc1cccc(N(C)C(=O)CN(C)S(=O)(=O)c2ccc3c(c2)c(=O)n(C)c(=O)n3C)c1	i	-19%
CCCCC(=O)N1CCCC(c2nc(-c3cccc(OC)c3)no2)C1 (stereo not given)	i	-11%
COc1ccc(-c2nnc(C3CCN(S(=O)(=O)c4ccccc4)CC3)o2)cc1	14%	0%
COc1ccccc1N(C(=O)c1ccco1)C(C(=O)NC1CCCC1)c1ccc(N2CCOCC2)cc1 (stereo not given)	-25%	-24%
CC(=O)Nc1ccc(S(=O)(=O)NCCCN2CCN(Cc3ccccc3)CC2)cc1Cl	-2%	-12%
COc1cccc(-n2nnc3c(=O)n(CC(=O)NCC4CCCO4)cnc32)c1 (stereo not given)	-1%	3%
COc1ccccc1C(=O)C1CCCN(Cc2ccc(Oc3ncccn3)cc2)C1 (stereo not given)	-6%	2%
Cc1cccc(CNc2ncnc3ccc(-c4ccoc4)cc23)c1	u	-16%
Cc1nc(-c2ccccc2)sc1CCNC(=O)C(=O)Nc1ccc2c(c1)OCCO2	1%	3%
Cc1cccc(NC(=O)CCS(=O)(=O)c2ccc3c(c2)NC(=O)CS3)n1	-12%[7.34 µM]	-1%[7.34 µM]

(further entries)
SMILES	Vaccinia mCherry	Vaccinia Venus
CN(C)/C=N/c1nc2nccc(-c3cccnc3)n2n1	6%	-3%
CC(=O)C1=C(N2CCCCC2)CCC1=O	-14%	3%
CC(Cc1cccc(C(F)(F)F)c1)NCCCc1ccccc1 (stereo not given)	u	u
Cc1ccc(CN2CCN(C(=O)C3CCCO3)CC2)cc1 (stereo not given)	i	2%
CCOC(=O)[C@@H]1[C@H]2COc3ccc(Br)cc3[C@@H]2N2C(=O)N(c3ccc(C(F)(F)F)cc3)C(=O)[C@]12C	-34%	-21%
OCCN(CCO)c1ccc(C(c2ccc(Cl)cc2)c2ccc(N(CCO)CCO)cc2Cl)c(Cl)c1	i	-7%
Cc1nnc(N=c2ssnc2Cl)o1	u	-28%
CCC(CO)Nc1ncc([N+](=O)[O-])cc1C#N (stereo not given)	-14%	-6%
COc1ccc(-n2c(CCc3ccccc3)n[nH]c2=S)cc1	i	-13%
COc1ccc(-c2nc(CS(=O)CC(=O)N3CCc4ccccc4C3)c(C)o2)cc1 (stereo not given)	-9%	-6%
Cc1ccc(S(=O)(=O)c2nnn3c2nc(NCc2ccc(F)cc2)c2sccc23)cc1C	-29%	u
O=C(CCNS(=O)(=O)c1ccc(Br)s1)NC1CCCC1	-8%	1%

Screening results deposited in PubChem BioAssay by National Center for Advancing Translational Sciences (NCATS).
